Mtb betalactam = beta-lactam sensitization of Mtb H37Rv, H37Rv | inhibition, % at 25 µM | 330,000 tested, 0.27% active | AID 434955, 2010 | M. tuberculosis H37Rv growth with meropenem, percent inhibition; hits of this screen are not shown here;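 active means about 74% or more and at least 40 points above the plate without the antibiotic, then above 30% in a dose series; inconclusive means first-round hits that could not be retested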;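 further: growth measured after seven days incubation then overnight dye step; 0% = bacteria only wells and 100% = bacteria with antibiotic; twin plates without the antibiotic show which effects depend on it; some results filed as inactive read as strong as hits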
YopH inh = YopH tyrosine phosphatase inhibitors, primary screen, biochemical, fluorescence Ex485/Em525; YopH tyrosine phosphatase [Yersinia enterocolitica]; inhibition, %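 (about 10 µM by stock and volumes)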; 140,000 tested, 0.16% active; AID 898, 2007;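 active means inhibition of 50% or more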;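 further: controls were vehicle for no effect and minimum signal wells for full effect; inactives centre near -20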
Mtb H37Rv = M. tuberculosis H37Rv growth inhibitors, H37Rv strain (AID 1626). M. tuberculosis H37Rv growth inhibition; higher % means a stronger effect. one-dose inhibition, % at 10 µM; IC50 in µM for titrated hits. 220,000 tested, 0.95% active;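 active means confirmed in a dose series; inconclusive means inhibition above 80% but not taken into the dose series; inactive means below 80% or under 30% at every dose of the series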;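 further: bacteria incubated seven days before Alamar blue readout; 0% = bacteria only wells and 100% = bacteria with antibiotic wells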
Arbovirus anti = antivirals against arbovirus infection, primary screen, cell-based, full library, 10K replicate subset; arbovirus infection cell-based antiviral screen; inhibition, % at 10 µM; 200,000 tested, 0.37% active;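 active means inhibition from about 30%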;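 further: bluetongue infection of BSR cells; cell survival read as ATP light after 72 h; 0% = infected wells without compound and 100% = uninfected wells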
RecA intein inh = Mtb RecA intein splicing inhibitors, primary screen, biochemical, fluorescence, HTS | 290,000 tested, 0.75% active | inhibition, %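 (about 9 µM by stock and volumes)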 | cell-free RecA intein splicing; in the data active means inhibition above about 30%; inconclusive means no clear call, values can overlap the other calls;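 further: 0% = vehicle wells and 100% = reference inhibitor control wells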
Target sequence (P9WHJ3 whole entry, looked up): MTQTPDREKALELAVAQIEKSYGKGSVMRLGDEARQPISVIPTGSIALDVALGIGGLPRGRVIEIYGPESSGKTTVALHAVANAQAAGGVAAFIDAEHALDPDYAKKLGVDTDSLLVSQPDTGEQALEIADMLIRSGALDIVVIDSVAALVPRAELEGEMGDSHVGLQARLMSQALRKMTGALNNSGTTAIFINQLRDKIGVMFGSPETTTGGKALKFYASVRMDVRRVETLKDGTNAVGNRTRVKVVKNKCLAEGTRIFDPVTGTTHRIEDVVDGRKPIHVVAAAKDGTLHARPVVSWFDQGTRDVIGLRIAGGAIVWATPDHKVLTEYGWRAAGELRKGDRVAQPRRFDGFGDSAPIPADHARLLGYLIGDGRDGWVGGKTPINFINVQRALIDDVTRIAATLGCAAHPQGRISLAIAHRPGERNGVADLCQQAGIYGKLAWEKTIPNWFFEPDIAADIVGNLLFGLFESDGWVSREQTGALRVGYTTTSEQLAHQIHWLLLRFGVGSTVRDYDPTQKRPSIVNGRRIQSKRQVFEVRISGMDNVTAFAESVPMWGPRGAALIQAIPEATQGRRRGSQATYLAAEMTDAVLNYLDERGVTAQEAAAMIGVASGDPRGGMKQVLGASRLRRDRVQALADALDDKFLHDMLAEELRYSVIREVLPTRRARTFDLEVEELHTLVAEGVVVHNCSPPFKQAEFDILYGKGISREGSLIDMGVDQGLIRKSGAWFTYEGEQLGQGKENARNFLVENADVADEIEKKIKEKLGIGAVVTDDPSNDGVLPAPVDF
Arbovirus anti repeat = further read-out of Arbovirus anti, marked with its call; inhibition, %; measured here: 10K subset replicate screen; many hits read low in the repeat;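 first of two repeat runs on a subset; 0% = infected and 100% = uninfected wells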
The depositor's hits bear a star; ? = inconclusive; · = no result given; & = joins results of further samples. An excerpt; the hit share may differ from the screen's.

SMILES	Mtb betalactam	YopH inh	Mtb H37Rv	Arbovirus anti	RecA intein inh	others
C=CCn1c(SCC(=O)Nc2nncs2)nnc1-c1ccco1	1	·	·	·	-2.4
S=c1[nH]nc(C2CCCCC2)n1/N=C/c1ccc(Cl)cc1	?	·	·	·	1.7
O=C(O)c1ccc(N2C(=O)CC(N3CCN(c4cccc(Cl)c4)CC3)C2=O)cc1 (stereo unspecified)	-4	·	·	·	0.9
CCOc1ccc(NC(=O)CSc2nc3c(c(=O)n2-c2ccccc2OC)SCC3)cc1	14	·	7%	11	7.0	Arbovirus anti repeat=-2
C=CCOc1ccc(C(=O)n2cc(C(=O)OC)c3ccccc32)cc1	6	·	·	·	3.0
COc1ccc(NC(=S)NC(=O)Cc2ccccc2)c(OC)c1	2	·	·	·	4.8
C=CCc1c(OC)ccc2ccc(=O)oc12	-1	-13	5%	0	-1.0
CCN1C/C(=C\c2cccc([N+](=O)[O-])c2)C(=O)/C(=C/c2cccc([N+](=O)[O-])c2)C1	·	-37	?	-37	·
Cc1ccc(C)c(S(=O)(=O)Nc2ccc(O)c(Sc3ncn[nH]3)c2)c1	-4	·	4%	·	-1.3
Cc1cc(SCC(=O)NCCN2C(=O)CSC2=O)nc2ccccc12	-4	-5	-2%	4	-1.0
O=S(=O)(NCCOc1ccc(F)cc1)c1ccc2c(c1)OCCO2	13	-34	2%	21	2.4
Cc1ccccc1CN1C(=O)Nc2ccccc2C(=O)N1C(C)(C)C	-13	-22	-7%	-17	-0.6
O=C(CCC(=O)OCc1ccc(C(=O)Oc2ccccc2)cc1)Nc1cccc2ccccc12	100	-41	7.1µM*	1	-4.0
CCCOc1ccc(C(C)=O)cc1CSCCC#N	-5	-21	-4%	-2	1.3
Cc1csc(NC(=O)C2CSC3(C)CCC(=O)N23)n1 (stereo unspecified)	-10	·	·	·	1.2
COc1ccc(-c2nc(CS(=O)CC(=O)NCc3ccccc3)c(C)o2)cc1OC (stereo unspecified)	-12	·	·	·	2.3
CCCCCCN1CCN(c2ccc(Cl)cc2)CC1	7	·	4%	3	3.1
COc1ccc(Cl)cc1-n1c(=S)sc2c(=O)n(-c3ccc(F)cc3)c(SCC(=O)O)nc21	10	·	·	·	-9.6
Cc1onc(-c2ccccc2)c1C(=O)Oc1ccccc1	-4	·	7%	·	5.3
Cc1ccc(C(=O)Nc2c(C)cc(-c3ccc(Cl)cc3)oc2=O)cc1	20	-8	-3%	12	4.4
O=C(O)CN=C(NS(=O)(=O)c1ccc(Cl)cc1)c1ccc(F)cc1	1	·	2%	-1	-2.1
COc1cc(/C=C2/OC(=O)c3cc([N+](=O)[O-])ccc32)cc(OC)c1OC	?	-18	-11%	·	-0.1
O=C(Nc1cccc(Cl)c1N1CCOCC1)c1cccs1	13	·	·	·	1.3
CCCCNC(=S)N1CCN(CC)CC1	-9	·	-7%	-1	1.5
CC(=O)C1=C(O)C(=O)N(c2ccc(Br)cc2)C1c1cccc([N+](=O)[O-])c1 (stereo unspecified)	1	·	·	·	1.3
Cc1cccc(C)c1OCC(O)Cn1ccnc1C (stereo unspecified)	1	-48	7%	-1	-0.6	Arbovirus anti repeat=-2
COc1cccc(CC(=O)Nc2ccc(-c3csc(C)n3)cc2)c1	-10	·	-9%	·	2.2
CC(C)Cc1nc(N2CCN(C(=O)c3ccccc3)CC2)c(C#N)c2c1CCC2	23	-3	3%	-42	26
CC1CCCCN1C(=O)CSc1nc2ncccc2[nH]1 (stereo unspecified)	-5	·	·	·	-6.8
CS(=O)(=O)Nc1nc2ccccc2[nH]1	-5	·	-9%	·	-2.1
Cc1ccc(N2CC(C(=O)Nc3nnc(SCC(N)=O)s3)CC2=O)cc1C (stereo unspecified)	8	·	·	·	-3.3
Cc1ccccc1C1C2=C(Nc3[nH]n(-c4ccccc4)c(=O)c31)c1ccccc1C2=O (stereo unspecified)	-2	-11	9%	19	·
Cc1cc(-c2ccc([N+](=O)[O-])cc2)nc2ccccc12	11	·	11%	-5	0.2
O=C1/C(=C\c2cccs2)Sc2ccc3ccccc3c21	0	0	6%	8	19
Cc1cccc(C)c1NC(=O)Nc1cccs1	-6	-48	1%	-9	4.0
COC(=O)c1cccnc1Oc1ccccc1	85	·	-5%	·	3.1
CCCOc1ccc2oc(=O)c3c(c2c1)CCCN3C(=O)CN1CCCC(C(=O)OCC)C1 (stereo unspecified)	-6	-9	17%	-8	1.6
NS(=O)(=O)c1ccc(S(=O)(=O)NCCc2ccccc2)cc1	1	-46	1%	2	-1.2	Arbovirus anti repeat=4
Cc1cc(C)n(C(=O)CNC(=O)c2cccc(Br)c2)n1	2	·	·	·	-2.0
CSc1ccc(S(=O)(=O)N2c3ccccc3CC2C)cc1 (stereo unspecified)	7	·	·	·	12

Three compounds picked at random from the list so far:
SMILES	Mtb betalactam	YopH inh	Mtb H37Rv	Arbovirus anti	RecA intein inh	others
O=C(Nc1cccc(Cl)c1N1CCOCC1)c1cccs1	13	·	·	·	1.3
Cc1ccccc1C1C2=C(Nc3[nH]n(-c4ccccc4)c(=O)c31)c1ccccc1C2=O (stereo unspecified)	-2	-11	9%	19	·
COc1cc(/C=C2/OC(=O)c3cc([N+](=O)[O-])ccc32)cc(OC)c1OC	?	-18	-11%	·	-0.1

More entries.
SMILES	Mtb betalactam	YopH inh	Mtb H37Rv	Arbovirus anti	RecA intein inh	others
CCN(CC)CCn1c2ccccc2c2n[nH]c(=S)nc21	-1	·	·	·	0.8
COCCN(Cc1ccccc1)C(=O)c1cccc(S(=O)(=O)N2CCN(c3ccccc3)CC2)c1	-6	·	·	·	6.5
CCN(CC)CCNS(=O)(=O)c1ccc(/C=C/C(=O)O)cc1	5	·	-1%	-3	3.1
CCOc1ccc(NC(=O)N2CCC(C(N)=O)(N3CCCCC3)CC2)cc1	-12	-4	-2%	4	1.8
COCCNC(=O)CSc1ccc(Cl)cc1	0	·	9%	8	0.1
Cc1ccc(NC(=S)NC(NC(=O)Cc2cccc3ccccc23)C(Cl)(Cl)Cl)cc1 (stereo unspecified)	8	4	-1%	-35	-2.5
O=C(CSc1nccc(=O)[nH]1)N1CCOCC1	-10	·	·	·	-0.3
COC(=O)c1cc2c([nH]c3ccccc32)c(C)n1	·	-2	9%	4	·
CCOc1ccc(CN(C(=O)c2cc3ccccc3oc2=O)C2CC2)cc1	-4	-36	-9%	-9	0.3
S=c1nc[nH]c2nc[nH]c12	99&99	·	·	·	-1.7
COc1ccccc1/C=C1\SC(=S)N(CCC(=O)NCCCN2CCOCC2)C1=O	-4	·	2%	-9	5.3
COc1ccc(OC)c(CNC(=O)C2CCN(C(=O)N(C)C)CC2)c1	16	-17	9%	7	0.3
CC(C)P(=O)(c1cccc(C(=O)O)c1)C(C)C	2	-15	0%	7	0.4
CCc1cc[n+](-c2nc3ccccc3nc2C(=C=[N-])C#N)cc1	-4	11	-7%	6	2.6
Cc1cccc2cc(C(c3nnnn3Cc3ccccc3)N3CCN(C)CC3)c(=O)[nH]c12 (stereo unspecified)	6	-28	-5%	5	-0.5
CCCCNC(=O)CSc1nc2ccc(N3CCOCC3)cc2c(=O)n1Cc1ccc(OC)cc1	·	·	8%	5	·
Cc1cc(C)c(NC(=O)CS(=O)CC(=O)N2CCN(c3cccc(C)c3C)CC2)c(C)c1 (stereo unspecified)	7	·	·	·	0.7
CCOc1ccc(-n2c(SCC(=O)NCc3ccco3)nc3ccccc3c2=O)cc1	0	·	1%	4	·
CCOC(=O)N1CCN(C(=O)Nc2ccc3oc(C)nc3c2)CC1	0	16	-9%	9	-13
CN(C)S(=O)(=O)c1ccc(C(=O)NNC(=O)C2COc3ccccc3O2)cc1 (stereo unspecified)	-1	·	11%	4	-1.0

3 structures from above, arranged by number of heavy atoms, smallest number first:
SMILES	Mtb betalactam	YopH inh	Mtb H37Rv	Arbovirus anti	RecA intein inh	others
CCN(CC)CCNS(=O)(=O)c1ccc(/C=C/C(=O)O)cc1	5	·	-1%	-3	3.1
CCOc1ccc(NC(=O)N2CCC(C(N)=O)(N3CCCCC3)CC2)cc1	-12	-4	-2%	4	1.8
CCCCNC(=O)CSc1nc2ccc(N3CCOCC3)cc2c(=O)n1Cc1ccc(OC)cc1	·	·	8%	5	·

Taken from the results shown (4 entries):
SMILES	Mtb betalactam	YopH inh	Mtb H37Rv	Arbovirus anti	RecA intein inh	others
CCOc1ccc(NC(=O)N2CCC(C(N)=O)(N3CCCCC3)CC2)cc1	-12	-4	-2%	4	1.8
COCCNC(=O)CSc1ccc(Cl)cc1	0	·	9%	8	0.1
Cc1ccc(NC(=S)NC(NC(=O)Cc2cccc3ccccc23)C(Cl)(Cl)Cl)cc1 (stereo unspecified)	8	4	-1%	-35	-2.5
O=C(CSc1nccc(=O)[nH]1)N1CCOCC1	-10	·	·	·	-0.3

Other entries follow:
SMILES	Mtb betalactam	YopH inh	Mtb H37Rv	Arbovirus anti	RecA intein inh	others
Cc1cc(C)cc(N(CC(=O)N2CCC(C)CC2)S(=O)(=O)c2ccccc2)c1	2	-15	3%	2	2.0
CCOC(=O)N1CCN(C(=O)CSc2ccc3nnc(-c4ccccn4)n3n2)CC1	-8	·	-1%	8	-0.1
Cc1onc(-c2ccccc2Cl)c1C(=O)NCc1ccccc1	-4	6	9%	-8	-1.1
O=C(c1ccccc1)c1ccc(OCC(O)CN2CCN(Cc3ccccc3)CC2)cc1 (stereo unspecified)	95	3	-2%	15	0.3
CCS(=O)(=O)N1CCC(C(=O)OCC(=O)c2ccc(Br)cc2)CC1	3	-16	-3%	·	-2.0
O=C(CSCc1ccccc1)NNc1c(F)c(F)cc(F)c1F	7	·	·	·	-4.9
CCOc1ccc(NC(=O)NNC(=O)c2ccc3ccccc3c2O)cc1	-14	·	·	·	-4.9
O=C(CCn1c(=O)oc2ccccc21)Nc1cccc([N+](=O)[O-])c1	-4	·	·	·	2.0
CCCc1cc(C(=O)Nc2ccc(CC)cc2)no1	76	·	·	·	2.1
O=S(=O)(Nc1cccc(-c2ccc(N3CCOCC3)nn2)c1)c1ccc(Cl)c(Cl)c1	-13	·	·	·	6.3
CCC(=O)Nc1ccc(OCc2nnc3c4ccccc4c(C)nn23)cc1	-10	·	0%	-3	-7.7
Cc1cc(C)c(C(=O)N(C)CC2CCCN(CCc3ccccc3F)C2)o1 (stereo unspecified)	?	·	·	·	2.9
O=C(O)c1ccc(-c2ccc(/C=c3/sc4nc5ccccc5n4c3=O)o2)cc1Cl	11	·	·	·	-0.6
OC(c1ccccc1)(c1ccccc1)c1ncc[nH]1	0	·	·	·	-3.8
COc1ccccc1NC(=O)c1ccc2c(c1)C(=O)N(c1ccccc1OC)C2=O	-1	·	·	·	-1.6
CC(NS(=O)(=O)c1ccc(Br)cc1)C(=O)NC1CCCCCC1 (stereo unspecified)	0	·	·	·	2.0
CC1(C)Cc2ccccc2C(COc2ccccc2)=N1	-3	·	·	·	0.8
Cc1ccc(C)c(-c2csc(N/N=C/c3ccco3)n2)c1	0	·	-3%	17	3.5
C/C(CS(=O)(=O)c1ccc(Cl)c(Cl)c1)=N/NC(N)=S	67	·	0%	10	·
C[N+](C)(C)CCNC(=O)c1c(O)c2c([nH]c1=O)CCCC2	-1	-41	-12%	1	-2.2
CC(=O)N(CCc1ccccc1)Cc1cc2ccc(C)c(C)c2[nH]c1=O	0	·	·	·	0.3
CC(=O)Nc1c(NC(C)(C)C)c2ccccc2oc1=O	1	·	-4%	2	-0.2
NNC(=O)c1sc2cc(C(F)(F)F)cnc2c1-c1ccccn1	6	·	3%	-6	·

Among those listed so far, these have fluorine.
SMILES	Mtb betalactam	YopH inh	Mtb H37Rv	Arbovirus anti	RecA intein inh	others
O=S(=O)(NCCOc1ccc(F)cc1)c1ccc2c(c1)OCCO2	13	-34	2%	21	2.4
COc1ccc(Cl)cc1-n1c(=S)sc2c(=O)n(-c3ccc(F)cc3)c(SCC(=O)O)nc21	10	·	·	·	-9.6
O=C(O)CN=C(NS(=O)(=O)c1ccc(Cl)cc1)c1ccc(F)cc1	1	·	2%	-1	-2.1
O=C(CSCc1ccccc1)NNc1c(F)c(F)cc(F)c1F	7	·	·	·	-4.9
Cc1cc(C)c(C(=O)N(C)CC2CCCN(CCc3ccccc3F)C2)o1 (stereo unspecified)	?	·	·	·	2.9
NNC(=O)c1sc2cc(C(F)(F)F)cnc2c1-c1ccccn1	6	·	3%	-6	·
